High-throughput results (PubChem)
FGF22 binding: FGF22 (human) thermal shift binding | AID 651658 | recombinant FGF22 thermal shift, SYPRO orange fluorescence; percent of sucrose octasulfate shift, DMSO zero | calls only at 9.99 µM | 1.5% of 340,000 active;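 active = melting point raised past a set limit in the mean and every replicate; three in four hits are not shown here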
Target sequence (Q9HCT0 whole entry, looked up): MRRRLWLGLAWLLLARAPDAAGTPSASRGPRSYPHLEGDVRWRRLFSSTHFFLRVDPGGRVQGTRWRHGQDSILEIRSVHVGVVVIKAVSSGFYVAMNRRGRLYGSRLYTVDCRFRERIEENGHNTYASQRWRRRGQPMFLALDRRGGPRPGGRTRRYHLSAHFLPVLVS
Calls only; i = inactive. Not all compounds are listed; the hit share may differ from the screen's.

The first 3 entries as a preview:
SMILES	FGF22 binding
C[C@H]1CN([C@@H](C)CO)S(=O)(=O)c2ccc(C3=CCCCC3)cc2O[C@H]1CN(C)C(=O)C1CC1	i
COc1ccc(-c2cnc3c(c2)C(=O)N([C@H](C)CO)C[C@H](C)[C@@H](CN(C)Cc2ccccn2)O3)cc1	i
O=S(=O)(c1ccccc1F)N1CCCCN2[C@@H](CO)[C@@H](c3ccc(-c4cccnc4)cc3)[C@@H]2C1	i

The listing (from the top)
SMILES	FGF22 binding
C[C@H]1CN([C@@H](C)CO)S(=O)(=O)c2ccc(C3=CCCCC3)cc2O[C@H]1CN(C)C(=O)C1CC1	i
COc1ccc(-c2cnc3c(c2)C(=O)N([C@H](C)CO)C[C@H](C)[C@@H](CN(C)Cc2ccccn2)O3)cc1	i
O=S(=O)(c1ccccc1F)N1CCCCN2[C@@H](CO)[C@@H](c3ccc(-c4cccnc4)cc3)[C@@H]2C1	i
CC(C)[C@H](NC(=O)c1ccccc1)C(=O)N1CCC[C@H]1C(=O)NCCc1ccccc1Cl	i
CN1C(=O)c2cc(NC(=O)Cc3ccccc3)ccc2OC[C@H]2O[C@H](CC(=O)O)CC[C@H]21	i
Nc1[nH]c(C(=O)c2ccccc2)c(-c2cccc(C(F)(F)F)c2)c1C(=O)NCCc1c[nH]c2ccccc12	i
C[C@@H]1CCCCO[C@H](CN(C)Cc2ccc(C(=O)O)cc2)[C@H](C)CN([C@@H](C)CO)C(=O)c2cc(NC(=O)CCCN(C)C)ccc2O1	i
C[C@@H]1CN([C@H](C)CO)C(=O)c2cc(C#CC3CCCCC3)cnc2O[C@H]1CN(C)Cc1ccncc1	i
COc1ccc(NC(=O)N(C)C[C@H]2Oc3c(NC(=O)Nc4c(C)noc4C)cccc3C(=O)N([C@@H](C)CO)C[C@@H]2C)cc1	i
C[C@H](CO)N1C[C@H](C)[C@H](CN(C)S(=O)(=O)c2ccccc2)Oc2ccc(NC(=O)C3CCCCC3)cc2CC1=O	i
CO[C@@H]1CN(C)C(=O)c2cc(NC(=O)C3CCC3)ccc2OC[C@H](C)N(Cc2ccccn2)C[C@@H]1C	i
C[C@@H]1CN([C@H](C)CO)C(=O)c2cc(NC(=O)CCC(F)(F)F)ccc2O[C@@H]1CN(C)S(=O)(=O)c1ccccc1	i
C[C@@H]1CN([C@@H](C)CO)C(=O)c2cccc(NC(=O)Nc3ccc4c(c3)OCO4)c2O[C@H]1CN(C)C(=O)Nc1ccc(F)cc1	i
CNC(=O)C[C@H]1CC[C@H]2[C@@H](COC[C@@H](O)CN2C(=O)c2ccccn2)O1	i
COc1ccc2c3c([nH]c2c1)[C@@H](CO)N(C(=O)NC(C)C)CC31CN(C(=O)c2cccnc2)C1	i
C[C@@H]1CN([C@@H](C)CO)C(=O)c2cc(NC(=O)C3CC3)ccc2O[C@H]1CN(C)C(=O)Nc1ccc(F)cc1	i
C[C@@H](O)C#Cc1cnc2c(c1)C(=O)N([C@@H](C)CO)C[C@H](C)[C@H](CN(C)C(=O)Nc1ccc(C(F)(F)F)cc1)O2	i
C[C@H]1CCCCO[C@H](CN(C)C(=O)Cc2ccccc2)[C@@H](C)CN([C@@H](C)CO)C(=O)c2cc(NC(=O)Nc3ccccc3)ccc2O1	i
O=S(=O)(c1ccccc1F)N1CCCCN2[C@H](C1)[C@H](c1ccc(-c3ccccc3)cc1)[C@@H]2CO	i
COCC(=O)N(C)C[C@@H]1Oc2ncc(C#CC(C)(C)O)cc2C(=O)N([C@@H](C)CO)C[C@H]1C	i
CC(=O)N(C)C[C@H]1[C@H](c2ccc(-c3ccc(F)cc3)cc2)[C@@H](CO)N1C(C)=O	i
C[C@@H]1CN([C@H](C)CO)S(=O)(=O)c2ccc(C#CCN(C)C)cc2O[C@H]1CN(C)Cc1ccc(F)cc1	i
O=C(C[C@H]1CC[C@@H]2[C@H](COC[C@@H](O)CN2C(=O)c2ccccc2)O1)NCc1cccc(F)c1	i
O=C(C[C@@H]1CC[C@@H]2[C@H](COC[C@H](O)CN2S(=O)(=O)c2ccc(Cl)cc2)O1)N[C@H]1CCN(Cc2ccccc2)C1	i
C[C@H](CO)N1C[C@H](C)[C@H](CN(C)C(=O)Nc2cc(F)ccc2F)Oc2cc(C#CC3CCCC3)ccc2S1(=O)=O	i

An excerpt from above in order of formula weight, ascending.
SMILES	FGF22 binding
C[C@H]1CN([C@@H](C)CO)S(=O)(=O)c2ccc(C3=CCCCC3)cc2O[C@H]1CN(C)C(=O)C1CC1	i
CO[C@@H]1CN(C)C(=O)c2cc(NC(=O)C3CCC3)ccc2OC[C@H](C)N(Cc2ccccn2)C[C@@H]1C	i
Nc1[nH]c(C(=O)c2ccccc2)c(-c2cccc(C(F)(F)F)c2)c1C(=O)NCCc1c[nH]c2ccccc12	i
C[C@@H]1CN([C@H](C)CO)S(=O)(=O)c2ccc(C#CCN(C)C)cc2O[C@H]1CN(C)Cc1ccc(F)cc1	i
COc1ccc(NC(=O)N(C)C[C@H]2Oc3c(NC(=O)Nc4c(C)noc4C)cccc3C(=O)N([C@@H](C)CO)C[C@@H]2C)cc1	i
C[C@@H]1CCCCO[C@H](CN(C)Cc2ccc(C(=O)O)cc2)[C@H](C)CN([C@@H](C)CO)C(=O)c2cc(NC(=O)CCCN(C)C)ccc2O1	i

Additional compounds follow:
SMILES	FGF22 binding
C[C@H]1CN([C@@H](C)CO)C(=O)c2c(c3ccccc3n2C)-c2ccccc2CO[C@H]1CN(C)C(=O)CCN(C)C	i
Cc1noc(C)c1NC(=O)Nc1ccc2c(c1)C(=O)N([C@H](C)CO)C[C@@H](C)[C@H](CN(C)Cc1ccc(C(F)(F)F)cc1)OCCCC[C@H](C)O2	i
Cc1noc(C)c1S(=O)(=O)Nc1ccc2c(c1)C(=O)N([C@H](C)CO)C[C@H](C)[C@@H](CN(C)Cc1ccncc1)O2	i
C[C@@H]1CN([C@H](C)CO)S(=O)(=O)c2ccc(Br)cc2O[C@@H]1CN(C)S(=O)(=O)c1ccc(F)cc1	i
COc1ccc(NC(=O)N(C)C[C@@H]2Oc3ccc(NC(=O)Nc4c(C)noc4C)cc3C(=O)N([C@H](C)CO)C[C@H]2C)cc1	i
C[C@H]1CN([C@@H](C)CO)C(=O)c2cc(NS(=O)(=O)c3ccc(Cl)cc3)ccc2O[C@@H]1CN(C)Cc1ccc(C(=O)Nc2ccccc2N)cc1	i
O=C(c1cnccn1)N1CC(=O)N2[C@H](CO)[C@@H](c3ccc(/C=C/c4ccccc4)cc3)[C@H]2C1	i
C[C@H]1C=C(C(=O)Nc2ccccc2)O[C@@H](OCc2ccc(CO)cc2)C1	i
CO[C@H]1CN(C)C(=O)c2cc(NS(=O)(=O)c3ccccc3)ccc2OC[C@@H](C)N(C)C[C@H]1C	i
C[C@@H]1CN([C@H](C)CO)C(=O)c2cc(NC(=O)Cn3cnnn3)ccc2O[C@H]1CN(C)C(=O)Nc1ccccc1	i
Cc1cccc(CN2CCSCCS2(=O)=O)c1	i
Cc1noc(C)c1NC(=O)N(C)C[C@H]1OCCCC[C@H](C)Oc2ccc(NS(=O)(=O)c3cccs3)cc2C(=O)N([C@@H](C)CO)C[C@H]1C	i
Cc1ccc(S(=O)(=O)N[C@H]2CC[C@H](CCNC(=O)C3CC3)O[C@H]2CO)cc1	i
COc1ccccc1C#Cc1cnc2c(c1)C(=O)N([C@H](C)CO)C[C@@H](C)[C@H](CN(C)C(=O)CC1CC1)O2	i
CN(C)c1ccc2c(c1)[C@@H]1C[C@@H](CC(=O)NCc3ccccn3)O[C@@H](CO)[C@@H]1O2	i
CCCNC(=O)N(C)C[C@H]1Oc2ncc(/C=C/c3ccccc3)cc2C(=O)N([C@@H](C)CO)C[C@H]1C	i
CC(C)C#Cc1ccc2c(c1)O[C@@H](CN(C)Cc1ccncc1)[C@H](C)CN([C@H](C)CO)S2(=O)=O	i
CO[C@H]1CN(C)C(=O)c2cc(NC(=O)c3ccc(F)cc3)ccc2OC[C@@H](C)N(C)C[C@@H]1C	i
C[C@H](CO)N1C[C@H](C)[C@@H](CN(C)S(=O)(=O)c2ccc(Cl)cc2)Oc2c(NS(=O)(=O)c3ccccc3)cccc2C1=O	i
Cc1cc(C(=O)Nc2cccc3c2O[C@@H](CN(C)Cc2ccncc2)[C@@H](C)CN([C@@H](C)CO)C3=O)n(C)n1	i
Cc1ccc(S(=O)(=O)N(C)C[C@@H]2Oc3c(NC(=O)Nc4ccc(F)cc4)cccc3C(=O)N([C@H](C)CO)C[C@H]2C)cc1	i
COc1ccccc1C(=O)Nc1ccc2c(c1)C(=O)N(C)[C@@H]1CC[C@H](CC(=O)NCc3ccc(Cl)c(Cl)c3)O[C@H]1CO2	i
O=C(Nc1ccc(F)cc1)N[C@@H]1CC[C@H](CCNS(=O)(=O)c2ccccc2F)O[C@H]1CO	i
COCC(=O)N1C[C@@H](C)[C@H](OC)CN(C)C(=O)c2cc(NC(=O)c3ccc(F)cc3)ccc2OC[C@@H]1C	i
COc1ccc(S(=O)(=O)N(C)C[C@H]2Oc3ccc(NC(=O)c4ccncc4)cc3C(=O)N([C@@H](C)CO)C[C@@H]2C)cc1	i

The results go on:
SMILES	FGF22 binding
CO[C@@H]1CN(C)C(=O)c2cc(NC(=O)c3ccc4c(c3)OCO4)ccc2OC[C@H](C)N(CCC(F)(F)F)C[C@H]1C	i
N#C[C@H]1[C@H](c2ccccc2-c2ccccc2)[C@H](CO)N1C(=O)NC1CCCCC1	i
C[C@@H]1CCCCO[C@H](CN(C)Cc2ccc(C(F)(F)F)cc2)[C@H](C)CN([C@H](C)CO)C(=O)c2cc(NC(=O)Nc3ccc4c(c3)OCO4)ccc2O1	i
COC(=O)C1=C(C)N(Cc2cccc(C(F)(F)F)c2)C(=NCc2ccc3c(c2)OCO3)NC1c1cccc(Cl)c1 (stereo unspecified)	i
C[C@@H]1CN([C@@H](C)CO)C(=O)c2cc(NS(=O)(=O)c3ccc(F)cc3)ccc2O[C@@H]1CN(C)Cc1ccc(-c2ccccc2)cc1	i
CCCN(C)C[C@H]1Oc2ncc(Br)cc2C(=O)N([C@@H](C)CO)C[C@H]1C	i
CCC(=O)N[C@@H]1CC[C@@H](CC(=O)NCc2cc(F)cc(F)c2)O[C@@H]1CO	i
CN(C)C(=O)c1cccc(-c2ccc3c(c2)[C@@H]2[C@@H](CCN2Cc2ccccc2F)[C@@H](CO)N3)c1	i
O=C(C[C@@H]1CC[C@H]2NC[C@H](O)COC[C@@H]2O1)Nc1ccccc1	i
CO[C@H]1CN(C)C(=O)c2cc(NS(=O)(=O)CC(F)(F)F)ccc2OC[C@H](C)N(C(=O)c2ccc3c(c2)OCO3)C[C@H]1C	i
C[C@@H]1CCCCO[C@H](CN(C)C(=O)Cc2ccccc2)[C@@H](C)CN([C@@H](C)CO)C(=O)c2cc(NC(=O)Nc3ccc(C(F)(F)F)cc3)ccc2O1	i
C[C@@H]1CN([C@H](C)CO)C(=O)c2cc(NS(C)(=O)=O)ccc2O[C@@H](C)CCCCO[C@H]1CN(C)C(=O)Nc1ccccc1	i
COc1ccc(S(=O)(=O)N(C)C[C@@H]2OCCCC[C@H](C)Oc3ccc(NC(=O)NC4CCCCC4)cc3C(=O)N([C@H](C)CO)C[C@H]2C)cc1	i
COC(=O)C[C@H]1C[C@@H]2c3cc(NS(=O)(=O)c4ccccc4)ccc3O[C@@H]2[C@H](CO)O1	i
O=C(C[C@H]1C[C@H]2c3cc(NC(=O)c4ccc5c(c4)OCO5)ccc3O[C@H]2[C@H](CO)O1)NCc1cccnc1	i
C[C@H]1CN([C@@H](C)CO)C(=O)c2cc(/C=C/c3ccccc3)cnc2O[C@@H]1CN(C)C(=O)Cc1cccnc1	i
CO[C@@H]1CC[C@@H]2CCN(C)C(=O)[C@@H](C)N(C)C(=O)c3cccc(C#N)c3OC[C@H]1O2	i
Cc1cccc(S(=O)(=O)N2CC[C@@H]3[C@H](CO)N(C)c4ccc(-c5cccc(C#N)c5)cc4[C@@H]32)c1	i
C[C@@H]1CN([C@H](C)CO)C(=O)Cc2cc(NS(C)(=O)=O)ccc2O[C@@H]1CN(C)Cc1ccccc1	i
C[C@@H]1CN([C@H](C)CO)C(=O)c2cc(NC(=O)Nc3ccc(F)cc3)ccc2O[C@@H](C)CCCCO[C@@H]1CN(C)Cc1ccc(Cl)c(Cl)c1	i
O=C(c1cccnc1)N1CC2(C1)[C@H](c1ccccc1)[C@@H](CO)N2C(=O)CC1CC1	i
COC(=O)c1c(CC[C@@H](CO)NC(=O)N[C@H](Cc2ccccc2)Cn2cc(-c3ccccc3N)nn2)oc(C(C)=O)c1C(=O)OC	i
C[C@H](CO)N1C[C@H](C)[C@H](CN(C)Cc2cccnc2)Oc2cc(-c3ccccc3F)ccc2S1(=O)=O	i
C[C@@H]1CN([C@@H](C)CO)C(=O)c2cccc(NS(=O)(=O)c3ccccc3)c2O[C@@H]1CN(C)C(=O)Nc1cccc2ccccc12	i
COc1ccc(S(=O)(=O)Nc2cccc3c2O[C@@H](CN(C)S(=O)(=O)c2ccc(C)cc2)[C@H](C)CN([C@@H](C)CO)C3=O)cc1	i

Following part:
SMILES	FGF22 binding
COc1ccc(NC(=O)N(C)C[C@@H]2Oc3ccc(NC(=O)CCCCCC(=O)Nc4ccccc4N)cc3CC(=O)N([C@H](C)CO)C[C@H]2C)cc1	i
O=S(=O)(c1ccc(F)cc1)N1CCCCN2[C@H](CO)[C@H](c3ccc(-c4ccccc4F)cc3)[C@@H]2C1	i
CN1c2ccc(-c3ccccc3F)cc2[C@H]2[C@H](CCN2S(=O)(=O)c2ccccc2)[C@@H]1CO	i
C[C@@H]1CN([C@@H](C)CO)C(=O)c2cc(C#CC(C)(C)O)cnc2O[C@H]1CN(C)C(=O)C1CCOCC1	i
COc1ccccc1S(=O)(=O)N(C)C[C@H]1Oc2cc(/C=C/c3ccccc3)ccc2S(=O)(=O)N([C@@H](C)CO)C[C@@H]1C	i
O=C(C[C@@H]1CC[C@@H]2[C@H](COC[C@@H](O)CN2C(=O)Nc2ccc(Cl)c(Cl)c2)O1)NCc1ccncc1	i
CCCNC(=O)C[C@H]1C[C@H]2c3cc(NC(=O)c4cccnc4)ccc3O[C@H]2[C@@H](CO)O1	i
